Source: PubChem
Rango dissoc inh = inhibitors of RanGTP-induced Rango-importin beta complex dissociation | O95149+P62826 | Biochemical FRET Rango-importin beta, RanGTP-induced dissociation | Potency, µM (series often up to 46.1 µM), for inactives: at the highest dose activity change, negative = inhibition | hit rate 0.071% among 340,000; active means falling FRET ratio curve, often poorly fitted, with flat reads before Ran was added; inconclusive means other falling curves, or compound fluorescence or quenching; inactive means flat or rising ratio curve;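 also: potency is read from the fitted curve at half-maximal effect; % of control where 0% means no effect; nearly all actives have a fitted effect of over 45% in size; -100% = wells without RanGTP and RCC1; the record marks most hits as doubtful in a second field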
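Compounds sat 5 min at room temperature with 0.1 uM Rango biosensor plus 0.25 uM importin beta, then FRET pre-read. RanGTP-RCC1 (0.6 uM Ran, 2mM GTP, 0.2 uM RCC1) added for 45 min, and the CFP/YFP post-read measured blocked complex dissociation.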
Rango complex inh = Rango-importin beta binding inhibition. Q14974. Rango CFP/YFP FRET sensor + importin beta, 45 min. Potency, µM (series often up to 92.2 µM), for inactives: top-dose inhibition of complex formation. hit rate 0.031% among 340,000. AID 540263; active = rising FRET ratio curve, often small or poorly fitted; inconclusive = mostly compound fluorescence or quenching in the first reads; inactive = flat curves in all reads;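 also: potency is read from the fitted curve at half-maximal effect; 0% = DMSO wells and 100% = buffer wells lacking importin beta; nearly all actives have a fitted effect of over 15% in size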
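Inhibition scored from the CFP 486 nm/YFP 530 nm FRET ratio 45 min after adding 0.125 microM importin beta to 50 nM Rango biosensor preincubated 5 min with compound (room temperature, PBS with DTT, Tween-20, BSA). No-importin wells as positive control.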
GLA inh pH 4.5 = alpha-galactosidase A (human) inhibition, pH 4.5; P06280; purified enzyme, 4-MU-alpha-Gal fluorescence, pH 4.5; activity change, negative = inhibition, % at 105 µM; 230,000 tested, under 10 active; AID 1467; inconclusive = small, poorly fitted or top-dose-only inhibition, or a rising curve; inactive = flat fitted curve, though single readings scatter; no compound was filed as active;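 also: 0% = full activity with enzyme and -100% = basal without enzyme; dose as in the result columns while the protocol names 77 µM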
Target sequence (P06280 whole entry, looked up): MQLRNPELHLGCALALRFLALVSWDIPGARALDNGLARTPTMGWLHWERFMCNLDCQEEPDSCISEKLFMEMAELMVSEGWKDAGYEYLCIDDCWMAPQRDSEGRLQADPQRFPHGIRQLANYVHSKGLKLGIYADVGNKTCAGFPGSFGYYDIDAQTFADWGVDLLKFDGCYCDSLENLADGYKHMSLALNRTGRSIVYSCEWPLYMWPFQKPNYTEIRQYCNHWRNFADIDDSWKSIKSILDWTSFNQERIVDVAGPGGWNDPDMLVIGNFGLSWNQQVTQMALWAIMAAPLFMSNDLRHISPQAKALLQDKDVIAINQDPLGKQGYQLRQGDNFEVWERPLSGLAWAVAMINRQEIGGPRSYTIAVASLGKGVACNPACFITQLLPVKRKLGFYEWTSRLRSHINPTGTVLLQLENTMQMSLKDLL
miR-21 FLuc = miR-21 reporter, rising signal; HeLa miR-21 FLuc reporter, luciferase, 48 h; Potency, µM (top dose mostly 38.3 µM), without a hit: top-dose reporter change, positive = more light; 340,000 tested, under 10 active; active = well fitted rising curve with a large enough effect; inconclusive = small, poorly fitted or top-dose-only effect; inactive = no such curve, though single readings can be large or run the other way;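 also: % of control where 0% means no effect; miR-21 action dims this reporter so a rising signal means less miR-21 action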
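Compounds were titrated across several concentrations (up to approximately 40 uM) and incubated 48 hours with HeLa miR-21-FLuc reporter cells (miR-21 target sequence downstream of FLuc, endogenous miR-21). Readout was firefly luciferase luminescence after lytic detection reagent.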
An asterisk follows results filed as active; u = inconclusive; x = no result given; & = joins results of further samples; [ ] = another dose, or the depositor's remark. A portion of the library; count on the stated rates, not on these rows.

SMILES	Rango dissoc inh	Rango complex inh	GLA inh pH 4.5	miR-21 FLuc
S=C(NCCN1CCOCC1)Nc1ccc(Cl)cc1Cl	1%	0.1%	2	-9%
CCOC(=O)NC(NC(=S)Nc1ccccc1OC)C(Cl)(Cl)Cl (stereo unspecified)	3%	0.8%	6	-9%
C=C(C)C1CC=C(C)C(=NNC(=O)c2ccncc2)C1 (stereo unspecified)	-10%	-2.1%	x	x
COC(=O)C(NC(=O)CCC(=O)NC(C(=O)OC)c1ccccc1)c1ccccc1 (stereo unspecified)	-2%	0.0%	x	2%
C=CCNC(=O)c1onc(CSc2ccc(Cl)cc2)c1C(=O)O	1%	0.4%	-3	10%
CC(C)Cn1cc(C(=O)NC2CCN(Cc3ccccc3)CC2)c2c3ccccc3n(C)c2c1=O	x	x	1	-7%
Cc1cccc(C(=O)NCC(=O)NC(C)c2ccc(-n3ccnc3)cc2)c1 (stereo unspecified)	4%	0.2%	x	x
COc1ccc(NC(=O)CSc2nnc(Cc3cccn3C)n2-c2ccc(OC)cc2)cc1	17%	-3.8%	-9	-5%
c1csc(C2C3=C(Nc4ncnn42)c2ccccc2OC3)c1 (stereo unspecified)	-15%	0.7%	2	0%
O=C(CCNS(=O)(=O)c1ccccc1F)N1CCN(Cc2ccccc2)CC1	-11%	-0.8%	x	x
Oc1ccccc1N1CCN(C(c2ccccc2)c2ccccc2)CC1	-4%	-4.4%	x	11%
O=c1cc(-c2ccc(O)cc2)oc2c(C3O[C@H](CO)[C@@H](O)[C@H](O)[C@H]3O)c(O)cc(O)c12 (stereo partly specified)	-18%	-3.5%	x	x
Cc1nc2ccc(NC(=O)COc3cccc(F)c3)cc2s1	2%	-2.7%	2	-32%
COc1ccccc1CNC(=O)C(=O)NCC(c1ccco1)N1CCOCC1 (stereo unspecified)	10%	0.3%	2	0%
C[n+]1ccccc1COc1ccc(C(C)(C)C)cc1	14%	0.3%	1	15%
O=[N+]([O-])c1ccc2[nH]c(O)c(N=NC3CS(=O)(=O)CC3O)c2c1 (stereo unspecified)	3%	3.0%	-7	-4%
O=S1(=O)CCC(SCc2nc3sccn3c2Br)C1 (stereo unspecified)	-4%	-1.5%	2	-7%
CC1CCN(CC(=O)Nc2ccccc2-c2ccccc2)CC1	7%	0.5%	0	-2%
CCOC(=O)c1oc2ccc(S(=O)(=O)N3CCC(C)CC3)cc2c1C	8%	-1.1%	4	-7%
Cc1cc(C)nc(-n2nc(C)cc2NC(=O)c2cc(=O)c3ccccc3o2)n1	x	x	0	-2%
CCC(=O)Nc1nc(-c2cc([N+](=O)[O-])cs2)cs1	-27%	u	15	-3%
CCN(CC)C(=O)c1sc2c(c1C)c(=O)n(-c1ccc(OC)cc1OC)c(=O)n2CC(=O)c1ccccc1	-1%	-0.2%	-7[21.1 µM]	0%
CC1(C)C2CC=C(/C=N/NC(=O)c3ccc(Cl)cc3)C1C2 (stereo unspecified)	-10%	0.6%	-9	-26%
CCN(CC)S(=O)(=O)c1ccc(NC2=NS(=O)(=O)c3ccccc32)cc1	0%	0.4%	3	-1%
CCN(CC)C(=O)[C@H]1C[C@H](CC(=O)NCc2cccc(C(F)(F)F)c2)C(=O)N2CCc3c([nH]c4cc(CCC(=O)N(C)C)ccc34)[C@]12C	1%	-0.3%	x	x
C=CCOC(=O)/C=C/C(=O)NC(N)=O	17%	-1.6%	4	2%
O=C(O)CSc1c(-c2ccccc2)c2cc(Cl)ccc2[nH]c1=O	-8%	4.9%	2	1%
Nc1cccc2c1C(=O)N(CC(=O)NC13CC4CC(CC(C4)C1)C3)C2=O	u	u	9	-5%
COc1ccc(-c2nnc(SC)nc2-c2ccc(OC)c([N+](=O)[O-])c2)cc1[N+](=O)[O-]	1%	-1.2%	x	x
CCCCn1c(N)c(NCC(C)C)c(=O)[nH]c1=O	-7%	u	3	-2%
CCc1nnc(NC(=O)CSc2nc3ccc(OC)cc3[nH]2)s1	-28%	-0.7%	-2	-11%
CC(=O)/C(N=Nc1ccc(-n2ccc(C(F)(F)F)n2)cc1)=C(\C)O	0%	-0.9%	1	-11%
CC(=O)c1cccc(NC(=S)NC(=O)c2ccc(Br)cc2)c1	-5%	-3.4%	1	-36%
COc1ccccc1CN1CC(C(=O)NCc2ccc(C)c(F)c2)CCC1=O (stereo unspecified)	1%	1.8%	x	-4%
N#Cc1c(N2CCN(C(=O)c3ccccc3Cl)CC2)nc(-c2ccccc2)c2c1CCCC2	-6%	-0.5%	7	4%
OC(c1ccc(OCc2ccccc2)cc1)c1nnc(-c2ccccc2)o1 (stereo unspecified)	10%	3.5%	-3	-1%
COc1ccc(-n2nc(C(=O)NCC(=O)Nc3cc(C)ccc3OC)c3ccccc3c2=O)c(OC)c1	0%	-0.5%	x	5%
O=C(Nc1cccc([N+](=O)[O-])c1)C12CC3CC(C1)CC(n1cnc([N+](=O)[O-])n1)(C3)C2	2%	-1.0%	-3	-1%
O=C(CCNC(=O)C1CCN(S(=O)(=O)c2ccc(F)cc2)CC1)NCc1ccncc1	17%	-4.5%	x	0%
COc1ccc(OC)c(S(=O)(=O)N2CCC3(CC2)OCCN3S(=O)(=O)c2cccs2)c1	10%	-0.9%	x	x
COC(=O)[C@]1(C)N[C@H](CN(C)S(=O)(=O)c2ccccc2)[C@@H]2C(=O)N(Cc3ccccc3)C(=O)[C@@H]21	-6%	0.7%	x	x
CCOC(=O)c1c(NC(=O)CN2CCOCC2)sc(C(=O)NC)c1C	-12%	3.2%	-2	-11%
COc1ccc(OC)c(-c2nn(-c3ccccc3)cc2C(=O)N2CCc3ccccc3C2)c1	-5%	-0.4%	x	x
O=C(CN1C(=O)c2cccc3cccc(c23)C1=O)N1CCCCC1	-3%	-0.7%	-14	-10%
COc1cccc(OC)c1OCCN1CCCC1	9%	-2.8%	x	0%
Cc1ccc(NC(=O)c2cc(NC(=O)c3ccccc3C(=O)O)ccc2N2CCCCC2)cc1	24%	0.4%	7	-7%
COc1ccc2c(C#N)c3ccccn3c2c1	u	u	-3	16%
Cc1c(C(=O)c2ccccc2)c(=O)n(C)c(=O)n1C	u	4.9%	3	-2%
O=C(NCC1CCCO1)c1cc2c(s1)CCC2 (stereo unspecified)	1%	-5.0%	3	-42%
O=S(=O)(Nc1nc2ccccc2nc1N1CCN(c2ccccn2)CC1)c1ccc(Cl)cc1	u	u	-9	-16%
COc1ccc(NC(=O)CSc2nnc(C(C)C)n2N)cc1	24%	-0.2%	-8	-1%
CC(=O)N1CCN(CC(=O)Nc2ccccc2C(=O)NCc2ccc(C)cc2)CC1	-1%	-6.1%	x	5%
CCN(CC)CCNc1nc(-n2nc(C)cc2C)nc2sc3c(c12)CC(C)(C)OC3	6%	0.9%	-9	14%
Cc1cc(S(=O)(=O)NCc2ccc(S(N)(=O)=O)cc2)c(C)s1	21%	4.9%	-11	-3%
O=C1C2CCc3ccccc3C2N1c1ccccc1 (stereo unspecified)	-12%	7.0%	x	x
Cn1cccc1/C=N/NC(=O)c1cccnc1	-8%	-0.6%	6	-13%
CCn1c(-c2ccccc2)csc1=Nc1ccc(O)cc1	2%	2.4%	-4	-52%
Cc1ccc(-n2ncc3c2CCCC3NC(=O)CSc2ccccn2)cc1C (stereo unspecified)	-7%	-3.2%	x	5%
COC(=O)c1ccc2c(=O)n(NC(C)=O)c(=S)[nH]c2c1	-8%	3.1%	7	-1%
C=CCn1cnc2scc(-c3ccc(C)c(C)c3)c2c1=O	-12%	-3.1%	6	-11%
Later entries.
SMILES	Rango dissoc inh	Rango complex inh	GLA inh pH 4.5	miR-21 FLuc
c1ccc(-c2cn(-c3ccccc3)c3ncnc(N4CCCCC4)c23)cc1	11%	-0.1%	1[21.1 µM]	2%
O=[N+]([O-])c1c(NCCO)cc(N2CCN(Cc3ccc4c(c3)OCO4)CC2)c2nonc12	13%	1.1%	-12	-8%
Cc1cc(C)nc(SCc2nc(N)nc(-c3ccccc3O)n2)n1	-12%	1.8%	-4	-11%
CCOC(=O)c1ccc2nc(CCC(=O)N[C@H](C(=O)OC)C(C)C)c(=O)n(CC)c2c1	-13%	0.7%	9	-6%
CC(=O)Nc1ccc(C(=O)OCC(=O)NCc2ccccc2)cc1	-12%	-3.1%	-6	12%
Cc1ccc(C(=O)NCC(=O)OCC(=O)N(CC(C)C)c2c(N)n(Cc3ccccc3)c(=O)[nH]c2=O)cc1	8%	-0.7%	x	x
CCCN1C2CCCC1CC(NC(=O)c1ccccc1F)C2 (stereo unspecified)	-9%	-0.4%	2	-10%
CCOc1ccc(CN2CCC(Cc3ccccc3)CC2)cc1	u	0.6%	x	-3%
Cc1ccccc1CNC(=O)Cc1ccccc1[N+](=O)[O-]	0%	-0.7%	3	-60%
CCOc1ccc(NC(=O)N[C@@H](CCSC)C(=O)OC)cc1	-5%	4.6%	5	-9%
COc1ccc(S(=O)(=O)Nc2ccc3c(c2)N(C(C)=O)CCC3)cc1OC	-9%	-2.6%	x	x
O=C(CSc1ncc(-c2ccccc2)[nH]1)Nc1ccccc1	12%	4.8%	4	-32%&-10%
O=C(NCc1ccccc1)c1cccnc1Sc1ccccc1	1%	0.0%	x	-17%
C=C(C)Cn1c(CN(C)Cc2ccccc2)nc2c1c(=O)n(C)c(=O)n2C	-20%	2.5%	x	19%
CC1CCN(C(c2ccc(N(C)C)cc2)c2nnnn2Cc2ccc(F)cc2)CC1 (stereo unspecified)	11%	5.5%	-2	-5%
COc1cccc(/C=N/Nc2nc3ccccc3n3cnnc23)c1	u	u	7	-1%
COC(=O)c1ccc(C(=O)OC)c(NC2=NS(=O)(=O)c3ccccc32)c1	1%	0.8%	0	-4%
CCN(CC)C(=O)c1ccc(S(=O)(=O)NCc2cccnc2)cc1	2%	3.7%	-1	15%
CCc1nnc(NS(=O)(=O)c2ccc(N/C=C(\C=O)c3nc4cc(Cl)ccc4o3)cc2)s1	u	u	5	-4%
CC(C)(C)c1nc(CN2CCCCC2)cc(CN2CCCCC2)c1O	u	-0.1%	-8	-7%
O=C(CCC(=O)N/N=C/c1ccccc1O)NCc1ccccc1	-5%	-3.7%	-2	-2%
Clc1ccc(CSc2cc3c(nn2)-c2ccccc2CC3)cc1	18%	5.1%	5	-40%
O=S(=O)(c1cccc2nsnc12)N1CCc2ccccc21	7%	1.2%	x	-58%
COc1ccnc2c1c(=O)n(Cc1cccc(Cl)c1)c(=O)n2C	4%	0.2%	x	-19%
COc1ccc(N2CCN(C(CNC(=O)C(=O)NCc3ccc4c(c3)OCO4)c3ccco3)CC2)cc1 (stereo unspecified)	-6%	2.4%	-10	21%
CC(C)OCCCNC(=O)Cn1ncc2c(=O)oc3ccccc3c21	1%	-2.1%	7	-3%
CCCc1ccc(C(=O)NNc2cccc(C)c2)cc1	1%	6.3%	-14	-6%
Cc1cc(C)c[n+](-c2[nH]c(=O)sc2/C=N/N=C(\N)[S-])c1	-4%	-0.2%	-10	1%
S=c1[nH]nc(COc2ccc(Cl)cc2)n1-c1ccc(Cl)cc1	1%	3.5%	x	1%

A stretch from further up:
SMILES	Rango dissoc inh	Rango complex inh	GLA inh pH 4.5	miR-21 FLuc
COc1ccnc2c1c(=O)n(Cc1cccc(Cl)c1)c(=O)n2C	4%	0.2%	x	-19%
COc1ccc(N2CCN(C(CNC(=O)C(=O)NCc3ccc4c(c3)OCO4)c3ccco3)CC2)cc1 (stereo unspecified)	-6%	2.4%	-10	21%
CC(C)OCCCNC(=O)Cn1ncc2c(=O)oc3ccccc3c21	1%	-2.1%	7	-3%
CCCc1ccc(C(=O)NNc2cccc(C)c2)cc1	1%	6.3%	-14	-6%
Cc1cc(C)c[n+](-c2[nH]c(=O)sc2/C=N/N=C(\N)[S-])c1	-4%	-0.2%	-10	1%
S=c1[nH]nc(COc2ccc(Cl)cc2)n1-c1ccc(Cl)cc1	1%	3.5%	x	1%
